# Screens (PubChem BioAssay)
# TRPML1 ag: activates the human TRPML1 channel | Q9GZU1 | TRPML1-expressing cells, Ca2+ dye fluorescence, FDSS; host cell line not named in the record; reference of the full effect not given here | activation, % (no concentration beside the values) | hit rate 0.12% among 410,000 | AID 624414; in the data active = activation above about 50%; inconclusive = about 30% to 50%; inactive = below about 30%; also: 0% is about no effect; the text of the record puts the active cut at 80%
#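 TRPML1-DL cells, Tet-induced overnight (~16 h, 37 degrees C), loaded 45-90 min at room temperature with Ca8 no-wash calcium dye plus quencher. FDSS fluorescence: 10 s baseline, compound pin-transfer, 110 s agonist read, then EC80 54-4 (4uM final) and 110 s antagonist read.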
# TRPML1 inh: inhibitors of human TRPML1 channel; TRPML1-inducible cells, Ca2+ dye fluorescence, FDSS; stronger effect = lower value; inhibition of EC80 agonist-evoked calcium signal; activity change, negative = inhibition, % (concentration not given with the values); hit rate 0.02% among 390,000; AID 624415; in the data active means activity change below about -50%; inconclusive means about -30% to -50%; inactive means above about -30%;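 also: stimulus is agonist 54-4 at its EC80 concentration; % is scaled to controls: 0 for no effect and ±100 for the full control effect; compound concentration not given in the record; the text of the record puts the active cut at -80%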
#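 TRPML1-DL cells, Tet-induced overnight (~16 h, 37 °C) at 1,500 cells/well, were loaded with Ca8 no-wash dye plus quencher for 45-90 min at room temperature. Compounds were pinned during FDSS kinetic reading; agonist 54-4 at EC80 (4 uM final) then added.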
# Six1-Eya2 blk: Six1/Eya2 interaction inhibition; Q15475+O00167; AlphaScreen GST-Six1/His-Eya2 binding, biochemical; stronger effect = lower value; control for the full effect not named in the record; activity change, % (test concentration not listed); hit rate 0.56% among 360,000; AID 651725; in the data active = activity change below about -65%; inconclusive = about -30% to -65%; inactive = above about -30%; also: % is scaled to controls: 0 for no effect and ±100 for the full control effect; compound concentration not given in the record
#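 Six1/Eya2 binding was read as AlphaScreen signal after compounds were pinned into GST-Six1 plus His-tagged Eya2 (5X stock 250/500 nM) in pH 8.0 Tris/NaCl/TCEP buffer, beads added, then incubated 1 h, 37 C, dark.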
# D2 PAM: positive allosteric modulators of human D2 dopamine receptor; P14416; DiscoveRx D2 beta-arrestin cells, luminescence, 90 min; 100% = 57 uM dopamine signal; potentiation, % (test concentration not listed); hit rate 0.23% among 360,000; AID 624464; active = potentiation of 50% or more; inconclusive = 30% to 50%; inactive = 30% or less;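 also: compound concentration not given in the record; tested on top of an EC20 dose of dopamine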
#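 D2 cells co-treated with compound plus 50 nM dopamine (EC20) for 90 min at 37 deg C to detect potentiation. Beta-arrestin recruitment was read as enzyme-fragment luminescence after 1 h at ambient temperature. Full response was set by 57 uM dopamine.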
# CtBP-E1A inh: blocks the CtBP interaction with E1A | AlphaScreen GST-E1A/His-CtBP binding, 1536-well; stronger effect = lower value; control for the full effect not named in the record | hit rate 0.49% among 340,000 | activity change, % (no concentration beside the values); in the data active means activity change below about -65%; inconclusive means about -30% to -65%; inactive means above about -30%; also: % is scaled to controls: 0 for no effect and ±100 for the full control effect; compound concentration not given in the record
#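 Homogeneous bead-based format: GST-tagged E1A captured on glutathione donor beads, His-tagged CtBP on nickel acceptor beads; compounds precede bead addition by 2 h at 37 °C.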
# TRPV1 PAM: enhances activation of the human vanilloid receptor TRPV1. Q8NER1. hit rate 0.02% among 320,000. AID 540277. TRPV1-expressing cells, Fluo-8 calcium influx, capsaicin EC20 potentiation; host cell line not named in the record; control for the full effect not named in the record. potentiation, % at 8.33 µM; active means potentiation above 80%; inconclusive means 30% to 80%; inactive means below 30%; also: 0% is about no effect
# Target sequence (Q8NER1 whole entry, looked up): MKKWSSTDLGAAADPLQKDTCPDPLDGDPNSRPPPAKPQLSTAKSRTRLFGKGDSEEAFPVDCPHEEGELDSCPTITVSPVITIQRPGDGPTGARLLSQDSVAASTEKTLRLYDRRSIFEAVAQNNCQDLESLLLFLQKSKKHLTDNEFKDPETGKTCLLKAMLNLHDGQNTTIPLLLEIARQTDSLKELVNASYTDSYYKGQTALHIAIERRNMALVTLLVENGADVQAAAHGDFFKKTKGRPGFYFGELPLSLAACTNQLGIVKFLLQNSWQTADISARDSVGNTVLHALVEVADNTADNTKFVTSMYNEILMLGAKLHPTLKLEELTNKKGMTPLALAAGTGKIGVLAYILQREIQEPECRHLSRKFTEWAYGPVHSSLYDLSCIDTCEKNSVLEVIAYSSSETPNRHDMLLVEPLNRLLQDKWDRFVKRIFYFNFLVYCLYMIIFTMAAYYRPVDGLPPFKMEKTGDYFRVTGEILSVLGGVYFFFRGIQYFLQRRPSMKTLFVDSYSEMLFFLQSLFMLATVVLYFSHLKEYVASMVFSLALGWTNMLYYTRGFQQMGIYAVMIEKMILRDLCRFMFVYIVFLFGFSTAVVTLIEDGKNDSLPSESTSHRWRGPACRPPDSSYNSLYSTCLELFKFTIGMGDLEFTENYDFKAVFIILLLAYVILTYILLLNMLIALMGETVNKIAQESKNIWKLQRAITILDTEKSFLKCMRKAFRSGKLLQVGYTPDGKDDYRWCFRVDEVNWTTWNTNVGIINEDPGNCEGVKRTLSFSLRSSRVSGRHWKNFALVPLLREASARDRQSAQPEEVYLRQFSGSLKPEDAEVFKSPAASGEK
#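 TRPV1-expressing cells were cultured overnight at 35.5C and loaded with Fluo-8 calcium dye for 40 to 90 min at room temperature. After a 10 s baseline, compound was added and calcium influx was read kinetically for 3 min (ex 480/em 520 nm).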
# Starred values were filed as active, the others as inactive; ? = inconclusive; . = no result given; & = joins results of further samples. Random draw from the library (roughly 0.95% active in at least one column).
SMILES	TRPML1 ag	TRPML1 inh	Six1-Eya2 blk	D2 PAM	CtBP-E1A inh	TRPV1 PAM
CCN1CCN(CCNC(=O)c2cn(Cc3ccccc3F)nn2)CC1	0.1	-3	1	-20	-1	0
C#CCN(C[C@@H]1[C@@H](OC(=O)NCc2ccco2)[C@@H](OC(=O)NCc2ccco2)Cn2c(=O)n(CCCCCC)c(=O)n21)S(=O)(=O)c1ccc(C)cc1	0.3	23	-1	-5	-9	.
CSc1nsc(SCC(=O)Nc2ccccc2F)n1	-0.2	2	-4	-2	0	-15
CN(CCCCOc1ccc(F)cc1)Cc1ccccc1	0.5	35	-7	-3	20	0
Cn1c(C(=O)O)cc2c(=O)n3ccccc3nc21	-0.4	-1	-7	-8	-10	-13
Cc1occc1C(=O)N1N=C(C2CC2)CC1(O)C(F)(F)F (stereo unspecified)	-1.1	-8	8	-6	-10	27
COCCNS(=O)(=O)c1ccccc1	0.4	2	0	-6	-8	1
CC1CCCN(Cc2nc3c(c(=O)n(C)c(=O)n3C)n2CCc2ccccc2)C1 (stereo unspecified)	-0.9	5	6	-10	2	-39
O=C(O)CCC(=O)N1CCc2cc(S(=O)(=O)NCc3cccs3)ccc21	0.1	-2	1	0	-1	8
O=C(CC(NC(=O)OCc1ccccc1)c1nn[nH]n1)OCc1ccccc1 (stereo unspecified)	-0.1	-6	0	-6	5	.
COC(=O)C(CC(=O)CNC(=O)c1ccccc1)NC(=O)c1ccccc1 (stereo unspecified)	-0.6	7	1	-6	3	.
O=C(C[n+]1ccc(C(=O)N/N=C/c2ccc(O)cc2)cc1)c1ccccc1	1.7	8	-28	6	-14	-5
O=C(CN1CCN(C(c2ccccc2)c2ccccc2)CC1)N1N=CCC1c1ccccc1 (stereo unspecified)	0.5	6	-4	-21	-6	-5
CS(=O)(=O)C1=NN2C(=N)/C(=C\c3ccc(OC(=O)c4ccco4)cc3)C(=O)N=C2S1	0.2	-2	7	-2	.	0
Cc1cccc(C)c1OCC(C)N (stereo unspecified)	0.1	-22	3	-7	0	?
COc1ccc(S(=O)(=O)NC2CC(=O)N(c3ccc4c(c3)OCCO4)C2)cc1 (stereo unspecified)	-0.1	1	0	-3	2	-1

# Limited to Six1-Eya2 blk, CtBP-E1A inh and D2 PAM, for some of the entries so far:
Compound	Six1-Eya2 blk	CtBP-E1A inh	D2 PAM
O=C(CN1CCN(C(c2ccccc2)c2ccccc2)CC1)N1N=CCC1c1ccccc1 (stereo unspecified)	-4	-6	-21
CS(=O)(=O)C1=NN2C(=N)/C(=C\c3ccc(OC(=O)c4ccco4)cc3)C(=O)N=C2S1	7	.	-2
Cc1cccc(C)c1OCC(C)N (stereo unspecified)	3	0	-7

# Next results follow:
SMILES	TRPML1 ag	TRPML1 inh	Six1-Eya2 blk	D2 PAM	CtBP-E1A inh	TRPV1 PAM
COCCCn1c(SCC(=O)N2CCOCC2)nc2ccccc2c1=O	-0.8	28	3	0	3	-13
CCOC(=O)C(=CNc1ccc(N2CCCCC2)c(S(=O)(=O)Nc2ccccc2OC)c1)C(=O)OCC	-0.1	2	-1	6	10	.
O=C(NCCc1c[nH]c2ccccc12)c1cc2ccccc2oc1=O	0.2	20	-26	3	0	4
Cc1c(C(=O)N2CCCCC2)nn(-c2ccc(Cl)cc2)c(=O)c1C#N	0.3	1	0	1	3	4
CC(C)[C@H](NC(=O)N1CC(=O)Nc2ccccc21)C(=O)Nc1nccs1	1.6	-15	1	-9	1	5
CCCOC(=O)c1ccc(NC(=O)c2ccccc2OC)cc1	3.5	19	20	-6	16	-7
COc1cccc(CNC(=S)Nc2ccc(Cl)cc2C)c1	-0.2	34	-11	-2	1	-23
O=C1Nc2ccccc2C1C(C[N+](=O)[O-])c1ccccc1 (stereo unspecified)	-1.3	-2	5	-3	4	-10
CC(C)CCNC(=O)C(c1ccc(O)cc1)N(Cc1cccs1)C(=O)C1COc2ccccc2O1 (stereo unspecified)	3.1	-3	-19	-14	-6	-12
COc1cccc(N(CC(=O)N2CCN(C)CC2)S(=O)(=O)c2ccccc2)c1	0.9	13	3	-9	6	-4
CCO[C@@H]1OC(C(=O)N2CCN(C)CC2)=C[C@H](c2coc3ccccc3c2=O)[C@H]1CCCO	0.1	-9	-2	-13	4	-3
Cc1ccc(C(=O)N2CCCC2)c(F)c1F	2.0	1	5	-3	13	1
COc1cccc(NC(=O)CN(C)C(=O)c2ccc(S(=O)(=O)Nc3ccccc3C)cc2)c1	0.1	12	-2	-6	-8	16
Cc1cc2cccc(C)c2nc1SCC(=O)NC1CCCCC1	0.0	-3	-6	-3	0	-2
O=C1C2CC=CCC2C(=O)N1c1ccc(Cc2ccncc2)cc1 (stereo unspecified)	-0.4	1	2	3	7	2
CC(=O)Nc1ccc(NC(=O)C(C)OC(=O)c2ccccc2Sc2ccccc2C#N)cc1 (stereo unspecified)	0.0	-9	0	-1	0	10
Cc1cccc2cc(CN(CC3CCCO3)C(c3nnnn3Cc3ccco3)C(C)C)c(=O)[nH]c12 (stereo unspecified)	2.5	17	-29	9	-2	-36
Cc1ccc(/C=C/C(=O)Nc2ccc(S(N)(=O)=O)cc2)o1	0.5&-0.9	16&-4	-4	-9	.	-3
CCCCC(=O)NC(N1CCCCC1)C(Cl)(Cl)Cl (stereo unspecified)	-0.4	9	1	-5	6	-2
CCN1C(=O)C(C)S/C1=N\S(=O)(=O)c1ccc(Cl)s1 (stereo unspecified)	-0.5	-2	1	-6	3	12
Fc1ccccc1-c1csc(=Nc2cccnc2)n1CCCn1ccnc1	0.3	-7	-16	15	-3	12
O=C(CN1C(=O)c2ccc([N+](=O)[O-])cc2C1=O)Nc1nnc(C2CC2)s1	0.4	3	2	-18	0	.
Cc1ccc(Nc2cc(C)nc3ccccc23)c(C)c1	-0.6	-9	-7	-12	-19	.
O=C(Nc1cccc2nsnc12)c1cccnc1Cl	-0.2	2	-7	-19	-4	-4
COC(=O)c1c(NC(=O)COC(=O)c2ccc(Cl)nc2)sc(C)c1C	1.0	4	2	8	1	8
CSc1nc(N)c2c(C)c(C)sc2n1	-1.1	6	-8	-2	.	10
CN1CCN(C(=O)C23CC4CC(C)(CC(C)(C4)C2)C3)CC1	2.4	21	3	-21	5	-3
COc1ccc(S(=O)(=O)CC(=O)Nc2ccccc2Cl)cc1	-0.5	2	0	0	0	-12
COc1ccc(CC(=O)OCC(=O)c2ccc(OC)cc2)cc1	0.5	3	4	-4	2	-7
CCOC(=O)c1cnc(SCc2nc(N)nc(Nc3ccc(OC)cc3)n2)nc1N	2.8	-6	-4	10	-14	-2
Cc1cc(C)cc(Oc2nn[nH]n2)c1	0.3	-3	3	-1	2	.
CN(C(=O)c1cccc(NC(=O)Cc2ccc(NC(=O)C3CCCN(C(=O)CCc4ccccc4)C3)cc2)c1)C1CCC1 (stereo unspecified)	2.1	41	-5	3	-18	.
CC(O)c1nc2ccccc2n1CCOc1ccccc1 (stereo unspecified)	-1.3	10	5	-6	4	-13
CCCS(=O)(=O)c1nc(S(=O)(=O)c2ccc(C)cc2)c(N2CC(C)OC(C)C2)s1 (stereo unspecified)	0.8	-5	1	-5	2	-16
Cc1ccccc1N1CCN(S(=O)(=O)c2nnc(NC(=O)c3ccc(F)cc3)s2)CC1	-0.6	-3	0	-12	0	27
Cc1ccc(SC(C)C(=O)Nc2ccncc2)cc1 (stereo unspecified)	3.8	19	5	1	6	-20
O=c1[nH]c2c(cnn2-c2ccc(Cl)cc2)c(=O)n1-c1cccc(Cl)c1	-0.9	-10	-9	-5	-1	1
CCCCCn1c(NC(=O)c2ccco2)c(S(=O)(=O)c2ccc(C)cc2)c2nc3ccccc3nc21	2.1	8	-2	-14	17	11
CCc1cccc(C)c1N1C(=O)CN(Cc2ccccc2)C1=S	0.9	6	-1	-7	-4	-7
CCOCCCN(C(=O)Cn1nnc2ccccc21)C(C(=O)NCc1ccco1)c1ccncc1 (stereo unspecified)	-0.7	-15	0	1	1	2
CCN(CC)CCNC(=O)C1c2ccccc2Oc2ccccc21	.	.	2	-21	-2	-5
O=C(Nc1cccc2ncccc12)c1ccc(Cl)cc1	0.1	34	?	-4	?	23
Clc1ccc(-c2nc3cnccn3c2NC2CCCC2)cc1	1.7	34	20	-3	14	-15
CN1C2CCC1CC(NC(=O)c1ccc(Cl)cc1)C2 (stereo unspecified)	0.5	-6	-1	-2	3	-1
COCCn1c(NC(=S)NC(=O)C2CC2)cc(=O)[nH]c1=O	-1.1	-3	-26	-22	-15	-2
O=C(CCNc1ccc(Cc2ccncc2)cc1)c1ccc([N+](=O)[O-])cc1	1.2	-9	-5	15	-13	-3
C=CCC[C@@H](Cc1ccc(F)cc1)C(=O)OC[C@@H]1CCCN1C(=O)[C@@H](CC=C)CC(=O)N(CCO)Cc1ccccc1	0.8	0	-13	-5	0	.
COc1ccc(NC(=O)c2ccco2)cc1NC(=O)COc1ccccc1	0.5&1.2	-13&15	-2	-1	2	-13
COc1cccc(NC(=O)Cn2c(CCC(=O)O)ccc2-c2ccc(Cl)cc2)c1	-0.3	-2	3	-5	4	7
Fc1ccc2[nH]c3c(N4CCSCC4)ncnc3c2c1	0.8	1	-16	?	-13	-16
Cc1cc(OCc2nn[nH]n2)c2c(-c3ccccc3)cc(=O)oc2c1	1.5	9	0	-1	7	.
O=S(=O)(NCC1CCCO1)c1ccc(S(=O)(=O)N(Cc2ccc(F)cc2)Cc2ccccn2)cc1 (stereo unspecified)	2.8	12	-12	-17	1	-11
CCc1c(C)nc2ncnn2c1N1CCCC(C(=O)NCc2cccs2)C1 (stereo unspecified)	-1.0	0	-1	-5	3	7
CCCCCCCNC(=O)C1(CC2CC(c3ccc(Cl)cc3)=NO2)CCN(C(=O)c2cc(OCC)c(OCC)c(OCC)c2)CC1 (stereo unspecified)	0.9	-10	-4	-7	1	-2
C=CCNC(=O)COC(=O)c1cccnc1Nc1ccccc1F	1.6	2	2	3	-6	-7
CCOc1ccc(NC(=O)CNc2ccc(C)cc2Cl)cc1	1.6	3	-2	-12	-11	9

# Next part.
SMILES	TRPML1 ag	TRPML1 inh	Six1-Eya2 blk	D2 PAM	CtBP-E1A inh	TRPV1 PAM
COc1cc(CNCCN2CCOCC2)ccc1OCc1cccc(Cl)c1	1.5	-19	7	-11	-1	6
CC1CCc2cc(F)ccc2N1C(=O)CSc1nnc2c3cc(F)ccc3n(C)c2n1 (stereo unspecified)	-0.1	6	2	-12	8	1
COC(=O)[C@]12CCCCC=C1N(Cc1cccc3ccccc13)C(=O)[C@H](CC(=O)NCC1CCCCC1)C2	-0.6	.	-15	.	-11	.
CN1CCN(C(=O)C2=C[C@H](c3csc4ccccc34)C[C@H](OCCCCO)O2)CC1	1.3	0	3	-10	1	-8
